CtBP-E1A blk = qHTS Assay for Inhibitors of the CtBP/E1A Interaction | CtBP / adenovirus E1A interaction (AlphaScreen) | AlphaScreen GST-E1A/His-CtBP binding, 1536-well; active compounds read low; control for the full effect not named in the record | activity change, % (concentration not given with the values) | actives 0.49% (n = 340,000); in the data active means activity change below about -65%; inconclusive means about -30% to -65%; inactive means above about -30%; further: on the % scale 0 is the no-effect control and ±100 the full control effect
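Protein mix (5X: 125 nM each GST-E1A, His-CtBP) was incubated with pinned compound 2 h at 37 deg C in dark, in 50 mM Tris pH 8.0 buffer with 300 mM NaCl. Glutathione donor and nickel acceptor beads followed; AlphaScreen signal read after 1 h.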
D2 PAM = Beta-Arrestin HTS for Positive Allosteric Modulators of the Human D2 Dopamine Receptor: Potentiators; D(2) dopamine receptor (Homo sapiens), P14416; DiscoveRx D2 beta-arrestin cells, luminescence, 90 min; 100% = 57 uM dopamine signal; potentiation, % (no concentration beside the values); actives 0.23% (n = 360,000); active = potentiation of 50% or more; inconclusive = 30% to 50%; inactive = 30% or less;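 further: compound concentration not given in the record; tested on top of an EC20 dose of dopamine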
Target sequence (P14416 whole entry, looked up): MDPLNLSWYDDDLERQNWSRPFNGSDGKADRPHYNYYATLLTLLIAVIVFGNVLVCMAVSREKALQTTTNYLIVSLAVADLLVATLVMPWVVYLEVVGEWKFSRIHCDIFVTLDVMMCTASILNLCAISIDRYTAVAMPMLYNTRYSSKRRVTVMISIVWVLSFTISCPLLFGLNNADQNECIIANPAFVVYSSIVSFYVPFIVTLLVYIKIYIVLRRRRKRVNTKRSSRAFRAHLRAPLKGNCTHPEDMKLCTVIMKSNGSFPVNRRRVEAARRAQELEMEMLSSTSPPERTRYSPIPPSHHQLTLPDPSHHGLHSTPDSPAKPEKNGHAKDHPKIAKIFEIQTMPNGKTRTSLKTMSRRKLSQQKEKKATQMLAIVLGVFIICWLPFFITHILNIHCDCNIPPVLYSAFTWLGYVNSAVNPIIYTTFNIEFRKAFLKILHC
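PathHunter beta-arrestin assay in DiscoveRx D2 cells. Compounds were added with an EC20 of dopamine (50 nM final) for 90 min at 37 deg C. Luminescence was read 1 h after detection reagent, with 57 uM dopamine as the EC100 control.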
PINK1 expr mod = A Quantitative High throughput Screen to Identify Chemical Modulators of PINK1 Expression; actives 0.2% (n = 410,000); AID 624263, 2012; Potency, µM (titrated, usually from 76.6 µM), for inactives: at the top dose activation (PINK1 increase), usual class: activators; PINK1 immunofluorescence, high-content cytometry, 24 h; active = well fitted activation curve with a large enough effect; inconclusive = small, poorly fitted or top-dose-only effect; inactive = flat fitted curve, though single readings scatter; cell line not stated here;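 further: potency means the concentration at half of the fitted maximal effect; % of control where 0% means no effect; nearly all actives have a fitted effect of over 65% in size; a mitochondrial uncoupler was the plate control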
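Readout is PINK1 immunofluorescence, quantified alongside mitochondrial, cell and nuclear markers by laser-scanning microplate cytometry. Cells from a stable line were exposed to compound titrations (5 concentrations) for 24 hours, with CCCP controls.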
Six1-Eya2 inh = qHTS Assay for Inhibitors of the Six1/Eya2 Interaction; Homeobox protein SIX1 (Homo sapiens) + Protein phosphatase EYA2 (Homo sapiens), …; AlphaScreen GST-Six1/His-Eya2 binding, biochemical; active compounds read low; control for the full effect not named in the record; activity change, % (test concentration not listed); actives 0.56% (n = 360,000); in the data active = activity change below about -65%; inconclusive = about -30% to -65%; inactive = above about -30%; further: on the % scale 0 is the no-effect control and ±100 the full control effect
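Six1/Eya2 binding was read as AlphaScreen signal after compounds were pinned into GST-Six1 plus His-tagged Eya2 (5X stock 250/500 nM) in pH 8.0 Tris/NaCl/TCEP buffer, beads added, then incubated 1 h, 37 C, dark.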
D2 ag = Beta-Arrestin HTS for Positive Allosteric Modulators of the Human D2 Dopamine Receptor: Agonists. D(2) dopamine receptor (Homo sapiens), P14416. DiscoveRx PathHunter D2 beta-arrestin, luminescence, 90 min; 100% = 57 uM dopamine signal. activation, % (test concentration not listed). actives 0.084% (n = 360,000); in the data active = activation above about 40%; inconclusive = about 15% to 40%; inactive = below about 15%; further: compound concentration not given in the record; the text of the record calls up to 30% inactive
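Agonist mode: compounds alone added to overnight-plated D2 PathHunter cells for 90 min at 37 C, with 57 uM final dopamine (EC100) defining full response. Beta-arrestin recruitment detected by chemiluminescent reagent, read after 1 h at ambient temperature.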
TRPML1 agonist = qHTS for Agonists of the Human Mucolipin Transient Receptor Potential 1 (TRPML1) | activation, % (test concentration not listed) | TRPML1-expressing cells, Ca2+ dye fluorescence, FDSS; host cell line not named in the record; reference of the full effect not given here | Mucolipin-1 (Homo sapiens), Q9GZU1 | actives 0.12% (n = 410,000); in the data active = activation above about 50%; inconclusive = about 30% to 50%; inactive = below about 30%; further: 0% is about no effect; the text of the record puts the active cut at 80%
Target sequence (Q9GZU1 whole entry, looked up): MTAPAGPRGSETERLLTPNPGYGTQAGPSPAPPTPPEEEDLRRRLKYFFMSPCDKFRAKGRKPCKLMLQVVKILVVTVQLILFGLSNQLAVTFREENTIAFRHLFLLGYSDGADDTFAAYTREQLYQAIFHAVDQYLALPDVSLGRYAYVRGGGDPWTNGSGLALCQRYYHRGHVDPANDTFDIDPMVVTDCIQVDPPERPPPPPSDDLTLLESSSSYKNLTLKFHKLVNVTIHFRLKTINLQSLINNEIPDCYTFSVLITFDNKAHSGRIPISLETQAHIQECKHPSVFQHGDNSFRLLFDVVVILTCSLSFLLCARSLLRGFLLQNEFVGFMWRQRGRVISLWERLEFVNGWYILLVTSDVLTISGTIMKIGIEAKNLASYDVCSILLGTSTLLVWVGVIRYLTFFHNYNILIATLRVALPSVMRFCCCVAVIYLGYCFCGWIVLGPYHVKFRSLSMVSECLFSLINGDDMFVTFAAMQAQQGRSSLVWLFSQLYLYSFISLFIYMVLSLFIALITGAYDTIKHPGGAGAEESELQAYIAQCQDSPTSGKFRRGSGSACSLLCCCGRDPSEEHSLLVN
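In this qHTS format, compounds were pin-transferred onto Ca8-dye-loaded TRPML1-DL cells induced with Tet overnight, and intracellular Ca2+ fluorescence was recorded kinetically for 110 s after a 10 s baseline. A subsequent 4uM final 54-4 (EC80) addition followed by a second 110 s read served as the antagonist phase.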
* hit, by the source's call; [ ] = dose if it differs, or a comment. Rows were taken by chance; 1.3% or so of the library scored in one or more.

How did Cc1ccccc1-c1noc(-c2ccccc2C(=O)O)n1 do in these assays?
CtBP-E1A blk: 42.6; D2 PAM: 2.5; PINK1 expr mod: -1.8%; Six1-Eya2 inh: 16.8; D2 ag: -1.3; TRPML1 agonist: 1.1

How did Cc1ccc(-c2cc(-c3ccccc3[N+](=O)[O-])[nH]n2)c(O)c1 do in these assays?
CtBP-E1A blk: -12.3; D2 PAM: -19.6; PINK1 expr mod: 2.6%[38.3 µM]; Six1-Eya2 inh: -8.4; D2 ag: -4.2; TRPML1 agonist: 0.1

Results for C[C@H](NC(=O)c1ccc(C(C)(C)C)cc1)C(=O)N1CCOCC1 ?
CtBP-E1A blk: 1.6; D2 PAM: -0.1; PINK1 expr mod: 0.3%; Six1-Eya2 inh: -0.7; D2 ag: 4.8; TRPML1 agonist: 4.4

How did COC(=O)Cn1c(=NC(=O)C(C)(C)C)sc2c(C)cc(C)cc21 do in these assays?
CtBP-E1A blk: -15.1; D2 PAM: -3.8; PINK1 expr mod: -1.3%; Six1-Eya2 inh: 5.7; D2 ag: -4.5; TRPML1 agonist: -0.1

Results for Cc1ccc(OCc2nnc(SCC(=O)c3cccc([N+](=O)[O-])c3)n2C)cc1 ?
CtBP-E1A blk: 0.0; D2 PAM: -3.0; PINK1 expr mod: inconclusive; Six1-Eya2 inh: -6.7; D2 ag: -0.6; TRPML1 agonist: 1.9

Results for CCN(C(=O)COC(=O)c1ccc2ccccc2n1)c1c(N)n(Cc2ccccc2)c(=O)[nH]c1=O ?
CtBP-E1A blk: 3.6; D2 PAM: -13.4; PINK1 expr mod: -0.5%; Six1-Eya2 inh: 0.1; D2 ag: -5.2; TRPML1 agonist: 0.3

Results for Cc1ccc(C)c(OCC(=O)Nc2ccc(C(=O)O)cc2NC(=O)COc2cc(C)ccc2C)c1 ?
CtBP-E1A blk: 0.0; D2 PAM: 21.6; PINK1 expr mod: 0.7%; Six1-Eya2 inh: 19.0; D2 ag: -1.3; TRPML1 agonist: 1.5

Results for O=C(NC1CCN(C(=O)N2c3ccccc3Sc3ccccc32)CC1)c1ccccc1F ?
CtBP-E1A blk: -9.3; D2 PAM: inconclusive; PINK1 expr mod: -3.3%[38.3 µM]; Six1-Eya2 inh: -14.7; D2 ag: 9.2; TRPML1 agonist: 0.2

Results for O=C(COc1ccccc1C(=O)NCC1CCCO1)Nc1ccc(Cl)cc1Cl (configuration not stated) ?
CtBP-E1A blk: 5.6; D2 PAM: -3.9; PINK1 expr mod: 0.9%; Six1-Eya2 inh: -5.3; D2 ag: -3.1; TRPML1 agonist: -0.3

What do the screens show for `COc1ccc([N+](=O)[O-])cc1NC(=O)CCSCCc1ccccn1`?
CtBP-E1A blk: 5.2; D2 PAM: -16.2; PINK1 expr mod: 0.8%; Six1-Eya2 inh: -4.1; D2 ag: -1.8; TRPML1 agonist: -0.1

What do the screens show for `CCOn1c(=O)c[n+]([O-])c2ccccc21`?
CtBP-E1A blk: -2.5; D2 PAM: -13.3; PINK1 expr mod: -1.5%; Six1-Eya2 inh: 6.6; D2 ag: -3.0; TRPML1 agonist: 2.8

What do the screens show for `CCC(=O)c1ccc(OCC(=O)Nc2nc(-c3cccnc3)cs2)cc1`?
CtBP-E1A blk: 7.5; D2 PAM: -15.2; PINK1 expr mod: 3.2%; Six1-Eya2 inh: -19.2; D2 ag: -3.5; TRPML1 agonist: 1.2

How did CC(C)CCNC(=O)CCCc1ccccc1 do in these assays?
CtBP-E1A blk: 0.0; D2 PAM: 5.4; PINK1 expr mod: 3.2%; Six1-Eya2 inh: 1.5; D2 ag: 4.2; TRPML1 agonist: -0.6

What do the screens show for `O=C(c1ccco1)N1CCN(CC(O)COc2ccc(Br)cc2)CC1` (configuration not stated)?
CtBP-E1A blk: 7.3; D2 PAM: -3.6; PINK1 expr mod: 2.5%; Six1-Eya2 inh: 0.4; D2 ag: 5.1; TRPML1 agonist: 1.0

How did COc1cccc(OC)c1/C(O)=C(\C#N)c1nc2ccccc2[nH]1 do in these assays?
CtBP-E1A blk: -9.8; D2 PAM: -1.0; Six1-Eya2 inh: -7.8; D2 ag: -0.1; TRPML1 agonist: -0.3

What do the screens show for `CCC(CO)Oc1cc(NC(=O)c2ccccc2N)c2ncn(C(C)C)c2c1` (configuration not stated)?
CtBP-E1A blk: -2.3; D2 PAM: -11.5; PINK1 expr mod: 3.8%; Six1-Eya2 inh: -12.5; D2 ag: 7.6; TRPML1 agonist: -0.9

What do the screens show for `CCCCCOC(=O)C(C)Sc1n[nH]c(=O)[nH]c1=O` (configuration not stated)?
CtBP-E1A blk: 9.4; D2 PAM: 0.9; PINK1 expr mod: -0.1%; Six1-Eya2 inh: 3.6; D2 ag: -4.5; TRPML1 agonist: 4.0

What do the screens show for `CCn1c(CSc2nc3ccccc3s2)nnc1SCC(=O)OC(C)(C)C`?
CtBP-E1A blk: -0.9; D2 PAM: -7.9; PINK1 expr mod: 4.8%[38.3 µM]; Six1-Eya2 inh: -1.6; D2 ag: -1.2; TRPML1 agonist: 1.2

How did N#CC1(C#N)C(C(N)=O)C1c1ccccc1 (configuration not stated) do in these assays?
CtBP-E1A blk: -2.4; D2 PAM: -32.0; PINK1 expr mod: -1.6%; Six1-Eya2 inh: -9.2; D2 ag: -2.3; TRPML1 agonist: 0.4

What do the screens show for `O=C(Nc1c(-c2ccccc2)[nH][nH]c1=O)c1cccc(C(F)(F)F)c1`?
CtBP-E1A blk: 0.8; D2 PAM: -8.7; PINK1 expr mod: 3.3%; Six1-Eya2 inh: -0.3; D2 ag: -4.0; TRPML1 agonist: -0.6

What do the screens show for `Cc1ccc(S(=O)(=O)N(C)C)cc1-n1c(SCC(=O)Nc2ccc(F)cc2Cl)nc2ccccc2c1=O`?
CtBP-E1A blk: 3.7; D2 PAM: 5.9; PINK1 expr mod: 0.6%; Six1-Eya2 inh: -0.3; D2 ag: -0.4; TRPML1 agonist: 2.1

What do the screens show for `CCOc1cc2c(C#N)c(N3CCNCC3)nc(N)c2c(N)n1`?
CtBP-E1A blk: -13.9; D2 PAM: -0.7; PINK1 expr mod: 0.7%; Six1-Eya2 inh: -0.9; D2 ag: -2.5; TRPML1 agonist: -0.1

Results for O=C1N(Cc2cccnc2)C[C@@H]2C[C@@H](c3ccc(-c4ccccc4)cc3)N3CCC[C@@]123 ?
CtBP-E1A blk: -5.5; D2 PAM: -14.0; PINK1 expr mod: 1.3%; Six1-Eya2 inh: -8.4; D2 ag: -1.6; TRPML1 agonist: -0.1

Results for O=C(NC(=S)Nc1ccccc1N1CCOCC1)c1ccc(-c2cccc(Cl)c2)o1 ?
CtBP-E1A blk: -4.3; D2 PAM: -6.7; PINK1 expr mod: 16.7%; Six1-Eya2 inh: 1.2; D2 ag: -1.5; TRPML1 agonist: 2.8

How did COc1ccccc1-c1nnc(SCC(=O)NC2CCS(=O)(=O)C2)n1N (configuration not stated) do in these assays?
CtBP-E1A blk: 2.3; D2 PAM: -10.0; PINK1 expr mod: -0.2%; Six1-Eya2 inh: 7.4; D2 ag: 4.7; TRPML1 agonist: 0.4

What do the screens show for `CCOc1cc(CNCCCN2CCOCC2)cc(Br)c1OCc1ccccc1Cl`?
CtBP-E1A blk: -20.7; D2 PAM: -29.5; PINK1 expr mod: -0.5%; Six1-Eya2 inh: -5.0; D2 ag: 0.0; TRPML1 agonist: 0.9

Results for CCOC(=O)c1sc(SC)c2c1CCC/C2=N/OC ?
CtBP-E1A blk: 5.4; D2 PAM: -6.0; PINK1 expr mod: 16.9%; Six1-Eya2 inh: -14.7; D2 ag: -3.1; TRPML1 agonist: 0.9

What do the screens show for `CC(CNC(=O)C(C)(C)C)NC(=O)C(C)(C)C` (configuration not stated)?
CtBP-E1A blk: 2.3; D2 PAM: -10.4; PINK1 expr mod: 4.7%; Six1-Eya2 inh: 4.3; D2 ag: 2.6; TRPML1 agonist: 0.2

What do the screens show for `CC1(C)Cc2nc(-c3ccccc3)n3cnnc3c2CO1`?
CtBP-E1A blk: 1.1; D2 PAM: 1.5; PINK1 expr mod: 2.8%; Six1-Eya2 inh: 4.5; D2 ag: -3.1; TRPML1 agonist: -0.5

How did COCCN(CCOC)S(=O)(=O)c1ccc(C(=O)Nc2nc(-c3ccncc3)cs2)cc1 do in these assays?
CtBP-E1A blk: 11.1; D2 PAM: 19.3; Six1-Eya2 inh: -3.5; D2 ag: 6.2; TRPML1 agonist: 0.8

Two compounds picked at random from those above, as already listed:
What do the screens show for `CCCCCOC(=O)C(C)Sc1n[nH]c(=O)[nH]c1=O` (configuration not stated)?
CtBP-E1A blk: 9.4; D2 PAM: 0.9; PINK1 expr mod: -0.1%; Six1-Eya2 inh: 3.6; D2 ag: -4.5; TRPML1 agonist: 4.0

How did COCCN(CCOC)S(=O)(=O)c1ccc(C(=O)Nc2nc(-c3ccncc3)cs2)cc1 do in these assays?
CtBP-E1A blk: 11.1; D2 PAM: 19.3; Six1-Eya2 inh: -3.5; D2 ag: 6.2; TRPML1 agonist: 0.8

Next part:
How did N#Cc1ccc(C(=O)NNC(=O)c2cccc(S(=O)(=O)N3CCOCC3)c2)cc1 do in these assays?
CtBP-E1A blk: -10.4; D2 PAM: -13.0; PINK1 expr mod: 0.2%; Six1-Eya2 inh: 0.7; D2 ag: -1.0; TRPML1 agonist: 0.4

Results for COCCCNc1nc(N)c([N+](=O)[O-])c(NCc2ccccc2)n1 ?
CtBP-E1A blk: -3.6; D2 PAM: 8.5; PINK1 expr mod: -0.2%; Six1-Eya2 inh: 2.6; D2 ag: 2.5; TRPML1 agonist: 4.0

How did CC(=O)c1ccc(Nc2nc(C(N)Cc3ccc(N)cc3)cs2)cc1 (configuration not stated) do in these assays?
CtBP-E1A blk: -20.1; D2 PAM: -8.1; PINK1 expr mod: 0.5%; Six1-Eya2 inh: -6.7; D2 ag: -3.4; TRPML1 agonist: -0.5

Results for Cc1ccc(CSCCNS(=O)(=O)c2ccccc2)cc1 ?
CtBP-E1A blk: -0.8; D2 PAM: -15.6; PINK1 expr mod: 0.4%; Six1-Eya2 inh: 2.3; D2 ag: 0.9; TRPML1 agonist: 4.0

What do the screens show for `Cc1cccc(N2CCN(C(=O)c3ccc4c(c3)OCCO4)CC2C)c1` (configuration not stated)?
CtBP-E1A blk: 6.7; D2 PAM: -1.5; PINK1 expr mod: 3.0%; Six1-Eya2 inh: 5.0; D2 ag: -0.9; TRPML1 agonist: -0.2

Results for CC(C)COc1cc(=O)[nH]c(SCC(C)C)n1 ?
CtBP-E1A blk: 6.1; D2 PAM: -22.5; PINK1 expr mod: -0.7%; Six1-Eya2 inh: -1.7; D2 ag: -2.1; TRPML1 agonist: 1.0

Screening data as filed in PubChem.
